GLA inh pH 4.5: alpha-galactosidase A (human) inhibition, pH 4.5 | 230,000 tested, under 10 active | activity change, negative = inhibition, % at 105 µM | P06280 | purified enzyme, 4-MU-alpha-Gal fluorescence, pH 4.5 | AID 1467; inconclusive = small, poorly fitted or top-dose-only inhibition, or a rising curve; inactive = flat fitted curve, though single readings scatter; no compound was filed as active;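 note: 0% = full activity with enzyme and -100% = basal without enzyme; dose as in the result columns while the protocol names 77 µM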
miR-21 FLuc: raises the signal of a miR-21 reporter | HeLa miR-21 FLuc reporter, luciferase, 48 h | Potency, µM (series often up to 38.3 µM), for the others: at the top dose reporter change, positive = more light | 340,000 tested, under 10 active | AID 2288; active = well fitted rising curve with a large enough effect; inconclusive = small, poorly fitted or top-dose-only effect; inactive = no such curve, though single readings can be large or run the other way;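 note: % of control where 0% means no effect; miR-21 action dims this reporter so a rising signal means less miR-21 action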
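Using DMEM plus 10% FBS, HeLa miR-21-FLuc cells are incubated with test compounds (final up to about 40uM) for 48 hours; firefly luciferase signal is then imaged following reagent-mediated lysis.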
Rango dissoc inh: inhibition of RanGTP-driven Rango-importin beta dissociation; O95149+P62826; Biochemical FRET Rango-importin beta, RanGTP-induced dissociation; Potency, µM (titrated, usually from 46.1 µM), inactives show at the top dose activity change, negative = inhibition; 340,000 compounds, 0.071% hits; active means falling FRET ratio curve, often poorly fitted, with flat reads before Ran was added; inconclusive means other falling curves, or compound fluorescence or quenching; inactive means flat or rising ratio curve;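 note: potency is the fitted concentration of half-maximal effect; % of control where 0% means no effect; nearly all actives have a fitted effect of over 45% in size; -100% = wells without RanGTP and RCC1; the record marks most hits as doubtful in a second field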
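Rango (0.1 uM)–importin beta (0.25 uM) complex; RanGTP-RCC1 trigger; 45 min RT; CFP/YFP FRET read.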
Rango complex inh: prevents formation of the Rango-importin beta complex | Q14974 | Potency, µM (highest dose often 92.2 µM), for the others: at the top dose inhibition of complex formation | 340,000 compounds, 0.031% hits | Rango CFP/YFP FRET sensor + importin beta, 45 min; active = rising FRET ratio curve, often small or poorly fitted; inconclusive = mostly compound fluorescence or quenching in the first reads; inactive = flat curves in all reads;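 note: potency is the fitted concentration of half-maximal effect; 0% = DMSO wells and 100% = buffer wells lacking importin beta; nearly all actives have a fitted effect of over 15% in size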
Target sequence (Q14974 whole entry, looked up): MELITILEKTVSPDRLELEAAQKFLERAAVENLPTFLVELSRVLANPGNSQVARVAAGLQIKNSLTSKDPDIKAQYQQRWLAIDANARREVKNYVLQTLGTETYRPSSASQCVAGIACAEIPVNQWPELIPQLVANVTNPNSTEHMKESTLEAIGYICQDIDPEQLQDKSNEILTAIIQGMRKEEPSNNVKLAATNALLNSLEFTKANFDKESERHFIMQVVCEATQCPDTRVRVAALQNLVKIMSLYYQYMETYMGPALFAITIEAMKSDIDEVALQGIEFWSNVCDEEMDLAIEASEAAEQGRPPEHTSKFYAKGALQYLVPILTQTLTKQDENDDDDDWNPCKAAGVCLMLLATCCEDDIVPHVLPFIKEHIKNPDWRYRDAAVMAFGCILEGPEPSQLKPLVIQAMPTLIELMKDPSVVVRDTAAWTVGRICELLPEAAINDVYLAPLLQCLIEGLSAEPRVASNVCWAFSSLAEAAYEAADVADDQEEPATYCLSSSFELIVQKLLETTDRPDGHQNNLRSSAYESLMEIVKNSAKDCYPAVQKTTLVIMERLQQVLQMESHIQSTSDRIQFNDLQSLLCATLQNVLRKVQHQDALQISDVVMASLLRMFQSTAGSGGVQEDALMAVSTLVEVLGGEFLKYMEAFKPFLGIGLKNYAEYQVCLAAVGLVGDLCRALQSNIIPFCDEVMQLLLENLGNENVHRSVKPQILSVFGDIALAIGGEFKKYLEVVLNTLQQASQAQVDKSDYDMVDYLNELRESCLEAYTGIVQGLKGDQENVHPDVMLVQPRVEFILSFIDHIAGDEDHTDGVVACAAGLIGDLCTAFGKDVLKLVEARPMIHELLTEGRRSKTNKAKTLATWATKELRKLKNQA
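FRET biosensor (snurportin 1 IBB flanked by EYFP and cerulean), 50 nM, with compound 5 min, then 0.125 microM importin beta in PBS, 1 mM DTT, 0.02% Tween-20, 0.1% BSA. CFP/YFP ratio read after 45 min at room temperature; pre-read flags interference.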
* hit, by the source's call; ? = inconclusive; nt = no result given; & = joins results of further samples. This is a subset. The share of hits here may be higher or lower than overall.

SMILES | GLA inh pH 4.5 | miR-21 FLuc | Rango dissoc inh | Rango complex inh
COc1ccccc1NC(=O)C(C)OC(=O)/C=C/c1ccc2ccccc2n1 (stereo not drawn) | nt | nt | -3.2% | 0.2%
CN1C/C(=C/c2ccccc2[N+](=O)[O-])C(=O)/C(=C\c2ccccc2[N+](=O)[O-])C1 | nt | nt | -22.5% | ?
Cc1ccc(NNC(=O)C2CCC2)cc1C | -1.1 | -16.6% | -6.4% | -0.1%
CCN(CC)C(=O)Oc1ccc(Br)c2ccccc12 | 1.9 | -15.8% | -6.7% | 7.0%
CC(=O)c1sc(NC(=O)C(C)Oc2ccc3c(C)cc(=O)oc3c2)nc1C (stereo not drawn) | nt | 5.6% | -11.8% | -4.1%
COc1ccc(CNC(=O)C2CCC(CNS(=O)(=O)c3cccs3)CC2)cc1 (stereo not drawn) | nt | 11.0%&10.8% | 0.0% | 2.5%
CC(C)(CN1CCN(Cc2ccccc2)CC1)NS(=O)(=O)c1ccc(Cl)cc1 | -24.8 | 12.3% | -0.2% | -0.9%
COc1ccc(CSCC(=O)NN=C2CCN(C)CC2)cc1 | 2.4 | -3.2% | 10.4% | -2.7%
CCOc1ccc(CO/N=C/c2c(C)[nH]c(=O)[nH]c2=O)cc1 | -5.9 | -15.3% | -4.8% | -1.7%
NC(N)=NS(=O)(=O)c1ccc(NC(=S)NC(=O)c2ccc(Br)cc2)cc1 | 6.7 | -3.7% | -4.7% | 0.1%
N#Cc1ccc(C(=O)Nc2cc(S(=O)(=O)Nc3ccc(Cl)cc3)ccc2N2CCCCC2)cc1 | ? | -8.3% | -2.7% | ?
Cc1ccc(S(=O)(=O)N2[C@@H](c3cccc(Cl)c3)C(C(=O)O)=CC[C@H]2c2cccc(C)c2)cc1 | nt | nt | 15.4% | 5.0%
COc1ccccc1NC(=O)C1CCCN(S(=O)(=O)c2cccc3nsnc23)C1 (stereo not drawn) | -5.2 | -1.3% | -5.2% | 6.8%
CN(Cc1ccccc1)C(=O)c1cccc(NC(=O)Cc2ccc(NC(=O)C3CCN(C(=O)C4CCCC4)CC3)cc2)c1 | nt | nt | 5.8% | 1.5%
CC(=O)c1c(C)[nH]c(C(=O)Nc2cccc(S(=O)(=O)N3CCCC3)c2)c1C | nt | nt | -1.1% | 1.5%
CC(C)(C)n1ncc2c(=O)n(CC(=O)Nc3ccc4c(c3)OCCO4)cnc21 | -1.6 | 1.7% | -7.3% | ?
CCCCCOc1ccc(Cn2ccnc2)cc1[N+](=O)[O-] | 1.3 | -34.8% | -19.3% | 4.4%
O=C(Nc1cccc(C(F)(F)F)c1)C1CCCN(c2ncccn2)C1 (stereo not drawn) | -6.6 | -9.2% | 2.6% | -2.5%
COc1ccc(C(=O)Nc2ccccc2[N+](=O)[O-])cc1S(=O)(=O)N1CCOCC1 | nt | 0.3% | 12.8% | -2.6%
Cc1ccc(/C=C2\SC(=S)N(CCC(=O)NNS(=O)(=O)c3ccccc3)C2=O)cc1 | 0.0 | -4.0% | 10.0% | 3.7%
CCC(C)NC(=O)c1cn(C)c(=O)c2cc(OC)c(OC)cc12 (stereo not drawn) | -1.6 | 8.9% | -2.3% | 0.7%
Cc1ccn2c(=O)nc(SCC(=O)Nc3cccc4ccccc34)nc2c1 | nt | nt | -13.6% | -3.4%
Cc1ccc2nsnc2c1N(S(C)(=O)=O)S(C)(=O)=O | -2.9 | -5.8% | 1.7% | 0.3%
COCCN(Cc1cc2cc3c(cc2nc1Cl)OCO3)C(=O)c1cccc(C)c1 | 6.7 | 18.3% | 14.0% | -1.5%
Cn1cc(CCC(=O)N2CCCC(Nc3ccc(F)cc3)C2)cn1 (stereo not drawn) | nt | -5.3% | 7.7% | -0.9%

Record cards, as listed above.
CC(C)(CN1CCN(Cc2ccccc2)CC1)NS(=O)(=O)c1ccc(Cl)cc1 is listed with GLA inh pH 4.5 = -24.8; miR-21 FLuc = 12.3%; Rango dissoc inh = -0.2%; Rango complex inh = -0.9%
Cc1ccc2nsnc2c1N(S(C)(=O)=O)S(C)(=O)=O is listed with GLA inh pH 4.5 = -2.9; miR-21 FLuc = -5.8%; Rango dissoc inh = 1.7%; Rango complex inh = 0.3%

(further entries)
SMILES | GLA inh pH 4.5 | miR-21 FLuc | Rango dissoc inh | Rango complex inh
C[C@H](CO)N1C[C@H](C)[C@@H](CN(C)C(=O)Nc2ccc(C(F)(F)F)cc2)Oc2ccc(NC(=O)Nc3ccccc3)cc2C1=O | nt | nt | -15.9% | -0.6%
CCOCCCNC(=O)c1ccc(NC(C)=O)cc1 | 7.0 | -5.3% | -0.1% | 0.6%
CCOc1ccc(C(=O)Nc2nnc(NC(=S)Nc3ccccc3)s2)cc1 | -1.1 | -34.3% | -9.0% | -0.1%
Cc1cc2ccccc2c(=O)n1CC(=O)Nc1ccc2c(c1)OCCO2 | -5.8 | -0.3% | -0.7% | 6.2%
N#CC1=C(N)Oc2c(ccc3ccccc23)C1c1cccs1 (stereo not drawn) | -3.5 | -7.5% | ? | ?
COc1ccc(-c2cc(C#N)nc(N3CCN(c4ccccc4)CC3)n2)cc1 | 2.1 | 1.4% | -11.8% | -2.5%
CCCCNC(=O)c1ccccc1C(=O)NC1(C(=O)NCCCC)CCCC1 | nt | nt | ? | -0.3%
C#Cc1ccc([C@H]2C=C(C(=O)N3CCOCC3)O[C@@H](OCC)[C@@H]2CCCO)cc1 | 2.0 | -4.2% | -0.8% | 0.7%
COc1ccc(C(=O)N/N=C/c2ccc(SC)cc2)cc1 | -2.2 | -27.7% | -1.0% | -1.0%
COc1ccc(-c2csc(N(C)C(=O)c3ccco3)n2)cc1 | nt | -58.3% | -4.3% | -3.0%
COc1ccc(Nc2nnc(SCC(=O)c3cc(C)n(CC4CCCO4)c3C)s2)cc1 (stereo not drawn) | -15.9 | -8.0% | -2.7% | 0.1%
CC(=O)c1cccc(N(CC(=O)NC2CCCCC2)C(=O)c2csnn2)c1 | nt | -2.9% | -1.1% | -1.2%
Cc1nc2ccccc2c2oc(C(=O)NCCCN3CCCC3=O)cc12 | 7.0 | -3.5% | -1.7% | -2.9%
C/C(=N\NS(=O)(=O)c1ccc(Cl)c([N+](=O)[O-])c1)c1ccc(C)o1 | -10.2 | 0.0% | 11.4% | 2.8%
CCN(CC)CCNc1ncnc2c1sc1nc(N3CCOCC3)c3c(c12)CCCC3 | -6.0 | -26.5% | 0.3% | -0.1%
COc1ccc(OC)c(S(=O)(=O)N2CCCC(C(=O)NCc3cccnc3)C2)c1 (stereo not drawn) | nt | 0.2% | 0.8% | 8.8%
COc1ccc(N(C)S(=O)(=O)c2cccc(C(=O)OCC(=O)NCc3ccccc3OC)c2)cc1 | 18.5 | -0.3% | -7.5% | -1.4%
CCOC(=O)N1CCN(CC(=O)Nc2cc(OC)c(OC)cc2C#N)CC1 | 9.0 | 0.1% | -4.4% | 0.0%
CCSc1nc(O)c(C(c2cccc(OC)c2)c2c(O)nc(SCC)[nH]c2=O)c(=O)[nH]1 | nt | 10.9% | -1.1% | -4.3%
CC(C)(C)c1ccc(C(=O)N/N=C2\C3CN4CCN(C3)CC2(c2ccccc2)C4)cc1 | 6.8 | -11.9% | -8.9% | 0.5%
CC(=O)N1CCOc2ccc(S(=O)(=O)NCCc3cccc(C)c3)cc21 | nt | -6.0% | -2.8% | 0.9%
CN(C(=O)C12CC3CC(CC(C3)C1)C2)C1CCS(=O)(=O)C1 (stereo not drawn) | 6.3 | -3.3% | 0.7% | -1.7%
COc1ccc2cc(CN(CC3COCCO3)S(=O)(=O)c3ccccc3)c(=O)[nH]c2c1 (stereo not drawn) | -4.1 | -6.6% | 4.7% | 0.9%
Cc1oc(-c2cccc(Br)c2)[n+]([O-])c1C | 0.8 | -8.1% | -3.1% | 1.1%
CC[C@]1(C(=O)OC)[C@H]2C(=O)N(Cc3ccccc3)C(=O)[C@H]2[C@H]2CN=C(SCc3ccc(C#N)cc3)N21 | nt | nt | -12.3% | -2.5%

A different layout for some results above.
mol,GLA inh pH 4.5,miR-21 FLuc,Rango dissoc inh,Rango complex inh
CC(=O)c1cccc(N(CC(=O)NC2CCCCC2)C(=O)c2csnn2)c1,nt,-2.9%,-1.1%,-1.2%
NC(N)=NS(=O)(=O)c1ccc(NC(=S)NC(=O)c2ccc(Br)cc2)cc1,6.7,-3.7%,-4.7%,0.1%
C[C@H](CO)N1C[C@H](C)[C@@H](CN(C)C(=O)Nc2ccc(C(F)(F)F)cc2)Oc2ccc(NC(=O)Nc3ccccc3)cc2C1=O,nt,nt,-15.9%,-0.6%
CC(=O)c1c(C)[nH]c(C(=O)Nc2cccc(S(=O)(=O)N3CCCC3)c2)c1C,nt,nt,-1.1%,1.5%

Remaining list, next part.
SMILES | GLA inh pH 4.5 | miR-21 FLuc | Rango dissoc inh | Rango complex inh
CC(C)CN(CC(C)C)C(=O)CN1c2cccc3cccc(c23)S1(=O)=O | nt | 1.2% | 7.6% | 1.6%
O=S(=O)(CCCc1ccccc1)c1ncn[nH]1 | -1.6 | -16.5% | 1.4% | -0.3%
CCC1=C/C(=C\c2ccc3c(c2)OCO3)C(=O)S1 | -0.4 | -8.1% | nt | nt
O=C(COc1ccc(Cl)cc1)Nc1cc2c3c(c1)CC(=O)N3CCC2 | nt | nt | 4.5% | -1.7%
CC1(C)Cc2ccccc2-c2nnc(SCc3ccc(C#N)cc3)n21 | 0.3 | 7.3% | 0.1% | 0.0%
COC(=O)c1nn(-c2ccccc2)c(Cl)c1/C=N/OCc1ccc(C)cc1 | 6.0 | -0.8% | 1.3% | 0.2%
Cc1cc([N+](=O)[O-])ccc1NC(=O)c1cc2ccccc2o1 | nt | -47.3% | 1.7% | 4.8%
COc1ccc(C(=O)CSc2nnc(CN3CCCCC3)n2-c2ccc(F)cc2)cc1OC | -18.1 | -8.7% | 22.5% | 3.4%
Cc1ccc(CN2C(=O)CCC2C(=O)NCc2cccnc2)cc1 (stereo not drawn) | 4.0 | 0.1% | -28.3% | -2.3%
COc1cc(C(=O)OCCCN2CCOCC2)ccc1O | -28.1 | -18.4% | 24.1% | -0.6%
C=CCCC(=O)NC1CCCc2c1cnn2-c1ccccc1F (stereo not drawn) | nt | 5.7% | -0.2% | 4.2%
CCN(CCCn1c(=S)[nH]c2ccc(N3CCOCC3)cc2c1=O)c1ccccc1 | 1.7 | 13.9% | -18.5% | -2.1%
Cc1nnc(SCC(=O)NC2CCCc3c2cnn3-c2ccccc2F)o1 (stereo not drawn) | nt | 0.4% | 13.6% | -1.2%
O=C(NNC(=O)C1CC1)c1cccc([N+](=O)[O-])c1 | nt | 0.1% | -5.3% | -2.1%
O=C(NN1C(=O)C2C(C1=O)C1C=CC2C12CC2)c1ccccc1Cl (stereo not drawn) | -2.3 | -5.2% | 6.4% | 0.3%
NC(=O)c1nsc(C(=O)N(Cc2cccnc2)C(C(=O)NCc2ccc(F)cc2)c2ccc(O)cc2)c1N (stereo not drawn) | nt | -1.1% | 14.5% | -0.1%
O=C(O)c1sccc1S(=O)(=O)N1CCOCC1 | nt | nt | 7.9% | 6.4%
COC(=O)c1ccc(NC(=O)C(=O)c2cn(CC(=O)N3CCOCC3)c3ccccc23)cc1 | nt | 0.0% | 1.5% | 1.6%
O=C(NC1CCCCC1)n1c(=O)oc2cc(S(=O)(=O)N3CCCCC3)ccc21 | 1.7 | -11.9% | -10.6% | -0.6%
O=C(Nc1nnc(SCc2ccccc2)s1)c1ccco1 | 4.2 | -25.8% | 8.3% | 2.4%
CC(=O)N1CCCN(C(=O)c2ccc3nc(Cc4cccc(Cl)c4)oc3c2)CC1 | nt | -2.0% | 0.5% | -0.5%
CC1CC(C)(C)CC2(C1)NC(=O)N(CC(=O)N1CCN(S(=O)(=O)c3cccs3)CC1)C2=O (stereo not drawn) | nt | nt | -11.8% | -1.9%
COc1ccc(C(=O)NC(C(=O)NCC2(N3CCCCC3)CCCCC2)C(C)C)cc1 (stereo not drawn) | nt | nt | 8.6% | 0.1%
COc1ccccc1NS(=O)(=O)c1cc(NC(=O)c2ccccc2C)ccc1N1CCOCC1 | nt | nt | 12.2% | -1.5%
O=C(Nc1ccncc1)c1ccc(Br)cc1 | nt | -0.3% | -8.3% | 2.4%
CCc1cc(CN2CCOCC2)c(NC(=O)c2ccccc2)s1 | -10.5 | -23.1% | -2.7% | 0.5%
CCc1nonc1NC(=O)c1oc2ccc(F)cc2c1C | nt | -32.0%&-46.5% | 24.3% | -0.2%

Screening data (PubChem BioAssay)
